YjeE inh: qHTS Assay for Inhibitors of YjeE; tRNA threonylcarbamoyladenosine biosynthesis protein TsaE (Escherichia coli (strain …; AID 605, 2007; purified YjeE, fluorescence polarisation of a bound ADP probe; actives 0.05% (n = 71,000); Potency, µM; active = well fitted falling curve; inconclusive = weaker or top-dose-only fall, or a rising curve; inactive = flat or poorly fitted curve;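 further: top concentration of the series not given in the record; excess ADP was the control for the full effect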
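Fluorescence polarization of a BODIPY Texas Red–ADP probe (2 uM) bound to purified YjeE (10 uM) was read after 15 min room-temperature incubation with compounds. Loss of polarization marks inhibitors; ADP serves as titrated control.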
PK Bst: Pyruvate Kinase | partly purified Bacillus stearothermophilus pyruvate kinase, luminescence ATP production; ribose 5-phosphate activator present at AC10 | Potency, µM | actives 1.2% (n = 51,000); in the data active means potency below about 11 µM; inconclusive means mostly about 12 µM to 25 µM; inactive means weaker than that;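 the screen sought inhibitors and activators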;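 further: potency means the concentration at half of the fitted maximal effect; scaled between full activation by ribose 5 phosphate and full inhibition by luteolin; about four in five hits inhibit and the cells do not say which; series up to 57 µM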
* marks the source's active call; other numbers are inactive results; i = inactive; ? = inconclusive; · = not tested or not shown. The list is partial; count on the stated rates, not on these rows.

Values run as follows: PK Bst, YjeE inh
COc1ccc(-c2nc(CS(=O)CC(=O)NCc3ccco3)c(C)o2)cc1 (stereo not drawn)
    ·, i
COC(=O)c1[nH]c2ccc(C)cc2c1NC(=O)CN1CCCc2ccccc21
    9.14*, i
COc1ccc(-n2c(=O)c(CCc3ccccc3)nc3cnc(N4CCN(C)CC4)nc32)cc1
    ·, i
O=C(Nc1ccccc1)NC1CCN(Cc2nnnn2C2CCCCC2)CC1
    >57, i
Cc1ccc(NC(=O)CN(C)S(=O)(=O)c2cccc3nsnc23)cc1C
    >57, i
Cc1cc(C)n2nc3nc(N4CCCC4)nc(-c4ccccc4)c3c2n1
    >57, i
COc1cc(Cn2cnnn2)ccc1O
    >57, i
O=C(Nc1nc2ccc(S(=O)(=O)N3CCCC3)cc2s1)C1CCCO1 (stereo not drawn)
    >57, i
CCCCCn1c(=O)[nH]c2cc(C(=O)NCCCN3CCCCC3)ccc2c1=O
    >57, i
Cc1cc(N2C(=O)C(O)=C(C(=O)c3ccco3)C2c2cccnc2)no1 (stereo not drawn)
    >57, i
O=S(=O)(c1ccccc1)N1CCC2(CC1)CN(c1ccncc1)C2
    ·, i
Cc1ccccc1CSc1nnc(-c2cccnc2)n1N
    >57, i
CCOC(=O)Cc1nnc2c(Nc3ccccc3F)nc3nonc3n12
    >57, i
Cn1c(=O)n(CCN2CCOCC2)c(=O)c2c1nc1n2CCCN1c1ccccc1
    >57, i
COc1ccc(Oc2c(C)oc3cc(OC(=O)N4CCOCC4)ccc3c2=O)cc1
    >57, i
COc1ccc2c(c1OC)C(=O)N1C2SC[C@H]1C(=O)NC1CC(C)(C)NC(C)(C)C1 (stereo partly drawn)
    >57, i
CCOCC(=O)Nc1nnc(C2CCCCC2)s1
    >57, i
COc1ccc(Cl)cc1-n1c(N)c(C(N)=O)sc1=S
    >57, i
COC(=O)C1=C(NC(=O)c2cccc(OC)c2)CCS1
    >57, i
Brc1ccc(-c2nc(-c3ccccn3)no2)o1
    ·, i

Values run as follows: PK Bst, YjeE inh
CO/N=C(\C(=O)N[C@@H]1C(=O)N2C(C(=O)[O-])=C(C[N+]3(C)CCCC3)CS[C@@H]12)c1csc(N)n1
    ·, i
CC1(C)CC(=O)C(CCC(=O)c2ccccc2)C(C)(C)N1 (stereo not drawn)
    >57, i
CCN(CC(=O)Nc1ccc(S(N)(=O)=O)cc1)S(=O)(=O)c1cc(C)ccc1OC
    >57, i
Cc1cc(NC(=O)c2cccc(COc3ccc(Br)cc3)c2)no1
    ·, i
COc1ccccc1CCn1c(=O)cnc2cncnc21
    ·, i
O=C(c1ccncc1)N1CCC2(CCN(Cc3nccs3)CC2)CC1
    ·, i
O=C(O)[C@@H](O)c1ccc(F)cc1
    ·, i
CC(C)n1c(CN2CCN(C)CC2)nc2c1c(=O)n(C)c(=O)n2C
    >57, i
CCOc1ccc(-c2nc(CSCC(=O)N3CCN(C(=O)c4ccco4)CC3)c(C)o2)cc1
    ·, i
Cc1cc(Nc2ccc(Br)cc2)n2nc(C)nc2n1
    ·, i
Cc1cccnc1NC(=O)C(C)Oc1ccccc1 (stereo not drawn)
    >57, i
CCCNc1cc(=O)n(C)c(=O)n1C
    ·, i
Cc1cc(C)nc(SCc2ccccc2C#N)n1
    ·, i
CCOc1ccc2ccccc2c1C(=O)N[C@@H]1C(=O)N2[C@@H]1SC(C)(C)[C@@H]2C(=O)O
    ·, i
O=C(c1cnn2c(C(F)F)cc(-c3ccccc3)nc12)N1CCSCC1
    >57, i
O=c1ccc(Br)c[nH]1
    >57, i
O=C(NCc1ccco1)c1ccc(CN2CCOCC2)cc1
    ·, i
Cc1c2c(n3c(nc4ccccc43)c1C#N)N(Cc1ccccn1)CC2
    >57, i
Cc1nc(NCCO)c2nc(-c3ccccc3)n(CCN(C)C)c2n1
    ·, i
c1ccc(CSc2nnc(-c3c[nH]c4ccccc34)o2)cc1
    ·, i

Values run as follows: PK Bst, YjeE inh
COCC(=O)N1CCC2(CC1)CCN(c1ccccc1)CC2
    ·, i
CC(C)C[C@@H](CC(=O)N[C@@H](CCC(=O)O)CC(=O)O)NC(=O)[C@@H]1CCCC[C@H]1NC(=O)C[C@@H](NC(=O)C[C@H](Cc1c[nH]c2ccccc12)NC(=O)[C@@H]1CCCC[C@H]1N)C(C)C
    ·, ?
Cc1ccc(S(=O)(=O)/N=C(\CN2CCOCC2)N2CCCC2)cc1
    ·, i
Nc1nc(OCc2ccccc2)c2[nH]cnc2n1
    ·, i
Cc1ccc(C(NC(=O)N2CCOCC2)=C(Cl)Cl)cc1F
    >57, i
CN1CCN(c2nc(-c3ccoc3)nc3ccccc23)CC1
    ·, i
O=C(CCCCn1c(=O)c2ccccc2n(CC(=O)NC2CCCC2)c1=O)NC1CCCC1
    >57, i
CCS(=O)(=O)NCCc1csc(-c2ccccc2)n1
    >57, i
COC(=O)[C@H](C)NC(=O)NCc1ccccc1F
    >57, i
O=C(CSc1ccc2nnc(-c3ccccn3)n2n1)NCC1CCCO1 (stereo not drawn)
    ·, i
COc1ccccc1C(=O)Oc1ccc(N2C(=O)CCC2=O)cc1
    >57, i
CN(C)CCNC(=O)NC1CCCCC1
    ·, i
CCOC(=O)N1CCC(NC(=O)c2cc3cc4cc(OC)ccc4nc3o2)CC1
    ·, i
CCCCNc1c(CN)cnc2cc(Cl)ccc12
    ·, i
CCn1c(SCC(=O)N2CCN(c3ccc(Cl)cc3)CC2)nc2ccccc2c1=O
    ·, i
O=C(COc1ccc2c(c1)OCO2)Nc1ccc2c(c1)oc1ccccc12
    >57, i
CS(=O)(=O)N(CC(=O)N1CCCC1)c1cccc(Cl)c1
    ·, i
CCCCCN(C(=O)NC(=O)NCCCC)S(C)(=O)=O
    >57, i
C/C(=C\c1ccco1)C1C(C#N)=C(N)Oc2n[nH]c(-c3ccccc3)c21 (stereo not drawn)
    ·, i
COC(=O)c1c(NC(=O)CSc2nncs2)sc2c1CCCCC2
    >57, i

Values run as follows: PK Bst, YjeE inh
O=C(NCCn1cccc1)c1cccc2ccccc12
    ?, i
CCC(CC)C(=O)NCc1ccccc1Cl
    >57, i
CCCCCn1c(S(=O)(=O)O)nc2ccccc21
    >57, i
CC(=O)Nc1nc(C)c(Cc2ccccc2)c(=O)[nH]1
    ·, i
CCn1c(=O)cc(SCC(=O)N2CCN(C(=O)c3ccco3)CC2)c2ccccc21
    >57, i
O=C(CSc1nc2ccccc2n1CC(=O)N1CCCC1)Nc1nccs1
    >57, i
COc1ccc(S(=O)(=O)NCCC(=O)NCc2cccs2)cc1
    >57, i
NC(=O)NC(N)=O
    ·, i
C=CCn1c(SCc2ccccc2C#N)nnc1-c1ccccc1O
    >57, i
CCOC(=O)C1CCN(C(=O)c2cnn3c(C)cc(C)nc23)CC1
    i, i
CCNc1nc2nonc2nc1NCC
    >57, i
O=C(NCCCC(=O)N1CCOCC1)c1cccnc1
    >57, i
COc1ccc(N2CCN(c3nc(NCCc4ccc(OC)c(OC)c4)nc(OC)n3)CC2)cc1
    ·, i
Nc1cc(N)nc(SCc2cccnc2)n1
    >57, i
Cc1ccccc1Cn1nc(C)c(NC(=O)c2cc(-c3cccs3)on2)c1C
    >57, i
CCOc1ccc(-c2[nH]ncc2Oc2ccccc2OCC)c(O)c1
    >57, i
COc1ccc(NC(=O)CCNC(=O)Cn2cnc3ccccc3c2=O)c(OC)c1
    >57, i
C[C@@]1(C(NC(=O)Cc2ccccc2)c2ccc(-c3ccccc3)cc2)C[C@H]1C1CCCCC1 (stereo partly drawn)
    ·, i
COCC(=O)N1CCC[C@@]2(CCN(c3ncccn3)C2)C1
    ·, i
CCOc1ccc(-n2c3nc4ccccc4nc3c3c(=O)n(Cc4ccco4)cnc32)cc1
    >11.4, ·

Values run as follows: PK Bst, YjeE inh
Cc1ccc(OCc2nnc(NC(=O)c3ccco3)s2)c(C)c1
    >25.6, ·
NC(=O)CSc1nnc(-c2cc3ccccc3o2)n1Cc1ccccc1
    >57, i
Cc1cc(C)nc(N2CCCC(C(=O)NCCc3ccc(F)cc3)C2)n1 (stereo not drawn)
    >57, i
CCOC(=O)C(C)Sc1nnc(Cc2cc(=O)[nH]c(=O)[nH]2)n1-c1cccc(OC)c1 (stereo not drawn)
    ·, i
CNc1ccc(C(O)(C(F)(F)F)C(F)(F)F)cc1C(O)(C(F)(F)F)C(F)(F)F
    >57, i
CCNC(=O)N1CCN(CCCC(c2ccc(F)cc2)c2ccc(F)cc2)CC1
    ·, i
CC(=O)c1cnc2nc(C)nn2c1C
    >57, i
CCOc1ccccc1Nc1nnc(SCC(=O)Nc2cc(C)on2)s1
    >57, i
CCOc1ccc(S(=O)(=O)NCCCN2CCOCC2)c2ccccc12
    ·, i
CC(=O)Nc1ccc(S(=O)(=O)N(C)S(=O)(=O)c2ccc(F)cc2)cc1
    >57, i
COc1ccc(Cl)cc1NC(=O)CSc1ncnc2c1oc1ccccc12
    >57, i
COc1ccc(N(CC(=O)NC2CCCCC2)S(=O)(=O)c2cccnc2)cc1
    ·, i
O=C1Nc2cc(Cl)cnc2N2CCCC12 (stereo not drawn)
    ·, i
Cn1c(=O)c2cc(S(=O)(=O)N3CCC(c4ccccc4)CC3)ccc2n(C)c1=O
    >57, i
c1c[nH]cn1
    ·, i
O=C(O)[C@@H]1CCCN1Cc1ccc2c(c1)OCO2
    ·, i
CC(=O)Nc1ccc(N=Cc2nc(-c3ccc(C)cc3)oc2O)cc1
    >57, i
O=S(=O)(c1ccccc1)N1CCC2(CCN(c3cccc(-c4ccccc4)c3)CC2)CC1
    ·, i
Cc1c(C(=O)O)oc2ccc(S(=O)(=O)NCc3ccc4c(c3)OCO4)cc12
    >57, i
O=C(CN1C(=O)c2ccccc2C1=O)Nc1ccccc1C(=O)N1CCCC1
    >57, i

Values run as follows: PK Bst, YjeE inh
O=C(CCSCCc1ccncc1)NCCCN1CCOCC1
    >57, i
O=C(NCc1ccncc1)c1nnc(Cc2c(F)cccc2Cl)o1
    ·, i
CC(=O)Nc1ccc2c(c1)nc(CCN1CCOCC1)n2C
    >57, i
Cc1nc2ccc(S(=O)(=O)NC(C(=O)NCc3cccs3)C(C)C)cc2s1 (stereo not drawn)
    ·, i
CCOC(=O)N1CCN(S(=O)(=O)/C=C/c2ccccc2)CC1
    ·, i
CCc1nc2ccccc2c(=O)n1CCCCn1c(CC)nc2ccccc2c1=O
    >57, i
Cc1ccc(-c2nnc(SCC(=O)Nc3ccccc3F)o2)cc1
    ·, i
O=C1OC(=O)c2c(Cl)c(Cl)c(Cl)c(Cl)c21
    ·, i
CC(=O)C1=C(O)C(=O)N(CCCCCC(=O)O)C1c1ccc(N(C)C)cc1 (stereo not drawn)
    >57, i
O=C(c1cccs1)n1nc(-c2ccccc2)nc1NCc1ccco1
    ·, i
O=C(CN1CCN(S(=O)(=O)c2ccc(Cl)cc2)CC1)Nc1ccc2c(c1)OCCO2
    i, i
O=S(=O)(NC1CCCCC1NS(=O)(=O)c1ccc(F)cc1)c1ccc(F)cc1 (stereo not drawn)
    >57, i
N#Cc1ccc(COc2ccc(CCO)cc2-n2nc3ccccc3n2)cc1
    >57, i
O=C(c1ccc(COc2c(F)c(F)c(F)c(F)c2F)o1)N1CCOCC1
    >57, i
Cc1c(/C(O)=C2/C(=O)C(=O)N(CCCN3CCOCC3)C2c2ccncc2)cnn1-c1ccccc1 (stereo not drawn)
    >25.6, ·
O=C1c2ccccc2S(=O)(=O)N1CC(O)Cn1c2ccccc2c2ccccc21 (stereo not drawn)
    ·, i
FC(F)(F)c1ccc2c(c1)nc1n2CCCC1
    ·, i
O=C1NCCCC1C(=O)N1CCN(C(=O)C2CCCNC2=O)CC1 (stereo not drawn)
    >57, i
CCC(=O)OCc1cc2cccc(C)c2[nH]c1=O
    >11.4, i
Cc1cc(C(=O)N2CCc3ccccc32)n(-c2ccccc2)n1
    ·, i

With a hit mark in PK Bst, among the entries above:
Values run as follows: PK Bst, YjeE inh
COC(=O)c1[nH]c2ccc(C)cc2c1NC(=O)CN1CCCc2ccccc21
    9.14*, i

(cont.)
Values run as follows: PK Bst, YjeE inh
CCOc1ccc(Oc2nc(NCC(C)C)nc(N(C)C)n2)nn1
    >57, i
CC(=O)Nc1ccc(S(=O)(=O)NC2(C(F)(F)F)NC(=O)N(C3CCCC3)C2=O)cc1 (stereo not drawn)
    ·, i
O=C(NCc1cccs1)C1CCCN(S(=O)(=O)c2cccs2)C1 (stereo not drawn)
    >57, i
O=C(CSc1ncnc2c1oc1ccccc12)N1CCCc2ccccc21
    >57, i
Oc1c(C(c2ccco2)N2CCN(C(c3ccccc3)c3ccccc3)CC2)sc2ncnn12 (stereo not drawn)
    ·, i
COC(=O)c1[nH]c2c(c1C)C(=O)CC(c1ccccc1)C2 (stereo not drawn)
    >57, i
COc1ccc(C(c2c(O)ccc3ccccc23)N2CCOCC2)c(OC)c1 (stereo not drawn)
    >57, i
COc1ccc(-c2nn(C)c3sc(C(=O)NCc4ccco4)cc23)cc1OC
    >57, i
Cc1ccccc1OCC(=O)Nc1ccc2c(c1)OCO2
    ·, i
Cc1noc(C)c1S(=O)(=O)N1CCC(C(=O)N2CCN(c3ccc(F)cc3)CC2)CC1
    >57, i

Compound profiles (already shown):
COc1ccc(C(c2c(O)ccc3ccccc23)N2CCOCC2)c(OC)c1 (stereo not drawn) is listed as PK Bst: >57; YjeE inh: i
Oc1c(C(c2ccco2)N2CCN(C(c3ccccc3)c3ccccc3)CC2)sc2ncnn12 (stereo not drawn) is listed as PK Bst: ·; YjeE inh: i

High-throughput results (PubChem)
